VDR inhibitor = Inhibitors of the vitamin D receptor (VDR): qHTS; Vitamin D3 receptor (Homo sapiens), P11473; VDR-SRC2-3 peptide fluorescence polarization, 2 h; Potency, µM, for the others: max response, negative = inhibition, hits mostly inhibitors; 400,000 compounds, 0.93% hits; active = well fitted inhibition curve with a large enough effect; inconclusive = small, poorly fitted or top-dose-only effect, or another doubt; inactive = no such curve, though single readings can be large or run the other way; also: series mostly up to about 120 µM
Target sequence (P11473 whole entry, looked up): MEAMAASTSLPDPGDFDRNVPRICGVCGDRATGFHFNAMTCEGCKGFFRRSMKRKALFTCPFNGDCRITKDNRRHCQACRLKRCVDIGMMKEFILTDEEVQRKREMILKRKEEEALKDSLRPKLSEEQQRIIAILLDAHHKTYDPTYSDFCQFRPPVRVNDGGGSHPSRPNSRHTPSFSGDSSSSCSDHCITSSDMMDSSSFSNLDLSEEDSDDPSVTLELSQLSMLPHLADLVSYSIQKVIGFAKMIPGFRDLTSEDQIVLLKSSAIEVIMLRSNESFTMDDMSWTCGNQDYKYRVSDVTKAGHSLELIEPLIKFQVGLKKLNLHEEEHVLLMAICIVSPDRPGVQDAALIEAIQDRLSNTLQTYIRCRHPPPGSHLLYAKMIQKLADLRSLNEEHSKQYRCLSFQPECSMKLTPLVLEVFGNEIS
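FP read-out; VDR + SRC2-3 coactivator peptide; 23 nl compound by pintool; 2 h RT incubation; reagents held at 4 deg C, protected from light.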
The depositor's hits bear a star; ? = inconclusive; & = joins results of further samples. % is scaled to controls: 0 for no effect and ±100 for the full control effect; potency is read from the fitted curve at half-maximal effect.

SMILES	VDR inhibitor
CCC(CC)c1nnc(NC(=O)CCc2ccc(OC)cc2)s1	4%
CN1CCN(S(=O)(=O)c2cccc([N+](=O)[O-])c2)CC1	0%
COc1ccccc1-c1n[nH]c2c1[C@H](C)CC[C@H]2C(C)C	12%
N#Cc1nc(COc2ccc(Cl)cc2)oc1N1CCN(Cc2ccccc2)CC1	11%
COC(=O)CSc1nc(C)c(C(=O)Nc2ccccc2C)c(-c2ccc(Cl)cc2)c1C#N	-18%
Cc1ccc(NC(=S)N(CCN2CCOCC2)Cc2cc3cc4c(cc3[nH]c2=O)OCCO4)cc1	18%
CCOc1ccccc1C(=O)Nc1ccc(-n2nncc2C(C)(C)C)cc1	-18%
CC(C)c1ccccc1NC(=O)COC(=O)CCN1C(=O)/C(=C\C=C\c2ccccc2)SC1=S	23%
O=C(C[C@H]1C[C@H](C(=O)N2CCCCC2)[C@@]2(CCc3ccccc3)c3[nH]c4cc(-c5ccco5)ccc4c3CCN2C1=O)NCCN1CCOCC1	-7%
COc1ccc(NC(=O)Nc2ccc3c(c2)C(=O)N([C@H](C)CO)C[C@H](C)[C@@H](CN(C)S(=O)(=O)c2ccccc2)O3)cc1	-6%
Cc1ccccc1Cn1cc(NC(=O)c2noc3c2CC(C(C)(C)C)CC3)cn1 (stereo unspecified)	-4%
CC1CCN(c2nc3ccc(C(=O)N4CCN(Cc5ccc6c(c5)OCO6)CC4)cc3s2)CC1	1%
CC(=O)c1cc2c(cc1NC(=O)Cn1nc(C)c(C)c(C#N)c1=O)OCO2	7%
COC(=O)C(N)CCCCN (stereo unspecified)	-14%
Cc1ccc(/C=C2\SC(=S)N(NS(=O)(=O)c3ccc(C)cc3)C2=O)cc1	8%
CCc1ccc(-c2cc(C(=O)NCc3ccccn3)c3ccccc3n2)cc1	-2%
Cc1ccc2oc(C(=O)N(Cc3ccccc3)C3CCS(=O)(=O)C3)c(C)c2c1 (stereo unspecified)	-16%
CCn1c(SCC(=O)NC2CC2)nnc1C(C)Oc1ccccc1 (stereo unspecified)	1%
Cc1ccc(Nc2nc(Nc3ccc(Cl)cc3)nc(N3CCOCC3)n2)cc1	?
COc1cc(OC)cc(C(=O)Nc2cccc(NC(=O)c3ccccc3)c2)c1	6%
CC(=O)NCc1ccc(C(=O)CCl)cc1	-3%
COc1cccc(CNC(=O)c2ccc3c(c2)nc2n3CCCCC2)c1OC	-7%
CCOc1ccc(NC(=O)NC(=O)N(C(C)C)S(C)(=O)=O)cc1	11%
O=C(NCc1ccc(Cl)cc1)c1ccncc1	-10%
CCOC(=O)C1CCN(S(=O)(=O)c2ccc(C)c(C)c2)CC1	-1%

Next section:
SMILES	VDR inhibitor
C=CCn1c(CNC(=O)c2ccccc2F)nnc1SCC(=O)N1CCOCC1	-10%
CN(C)C(=O)c1c(NC(=O)c2ccccc2F)sc2c1CCCC2	-3%
CCCCn1c(=O)c(CCC(=O)OCC(=O)Nc2cccc3ccccc23)nc2ccccc21	-16%
Cc1cc(F)ccc1NC(=O)C(C)n1c2ccccc2c2nc(=O)cc(C)n21 (stereo unspecified)	4%
Clc1ccc(-c2ccnc(Oc3cc(Cl)ccc3Cl)n2)cc1	-12%
CC(=O)c1cc(CN2CCN(C(C)C)C(CCO)C2)cs1 (stereo unspecified)	14%
CCCCOC(=O)CSc1nc(N)c(C#N)c(-c2ccc(OC)cc2)c1C#N	3%
O=C(CN1C(=O)NC2(CCCCCC2)C1=O)c1ccccc1	-9%
COc1ccc(NC(=O)CN2C(=O)NC(C)(c3ccc(C)cc3)C2=O)cn1 (stereo unspecified)	-17%
CC1CCC(N2CCNCC2)CC1 (stereo unspecified)	2%
CSc1ccc2nnc(-c3cccc(F)c3)n2n1	4%
CC(C)(C)OC(=O)N1CCC(c2c(C(=O)NCC3CCN(C4CCCC4)C3)cnn2-c2cccc(Cl)c2)CC1 (stereo unspecified)	12%
CCOc1ccccc1-n1nnc(-c2nc(-c3ccccc3C)no2)c1C	9%
CCN(Cc1ccccc1)S(=O)(=O)c1c(C)[nH]c(C)c1C(=O)N1CCCCC1	-15%
Cc1ccccc1Cn1nc(C)c(NC(=O)c2noc3c2CCc2ccccc2-3)c1C	17%
Cc1ccc(OCC(=O)Nc2ccccc2Sc2ccccc2)c([N+](=O)[O-])n1	6%
COc1ccc(C(=O)Nc2cccc(OC(=O)c3ccco3)c2)cc1	5%
CCC(c1nnnn1Cc1ccco1)N(Cc1cc2cc(OC)ccc2[nH]c1=O)C1CCCCC1 (stereo unspecified)	-4%
Cc1noc(C)c1S(=O)(=O)Nc1ccc(C(=O)NCCc2ccccc2)cc1	-4%
O=[N+]([O-])c1cccc(C=Nc2cccc3ccccc23)c1O	-4%
CC(=O)NC(=S)NNC(=O)CCc1ccccc1	-6%
CCCCc1ccc(NC(=O)c2cc3c(=O)n4ccccc4nc3s2)cc1	-12%
Cn1c(=O)c(C(=O)CN2CCCc3ccccc32)c(N)n(Cc2ccccc2)c1=O	7%
COc1ccc(C2OC(=O)CC2C(=O)NCc2ccccc2Cl)cc1OC (stereo unspecified)	-3%
CC/C(=N\O)c1ccc(OC)c(OC)c1	2%

Continued.
SMILES	VDR inhibitor
CCOc1ccc(NC(=O)CSC2=Nc3ccccc3C3=NC(CCC(=O)NCc4cccs4)C(=O)N23)cc1 (stereo unspecified)	-3%
CCOC(=O)COc1ccc(S(=O)(=O)N2CCc3ccccc3C2)cc1	-14%
CCN(CC)C(=O)c1ccc(Nc2nnc(-c3ccc(C)c(S(=O)(=O)NC)c3)c3ccccc23)cc1	-15%
Clc1cccc(CN2CCC3CC2c2cc(N4CCCCC4)ccc23)c1 (stereo unspecified)	-9%
CCC1CCCCN1CCCNS(=O)(=O)c1ccc2c(c1)oc(=O)n2C (stereo unspecified)	-5%
CCCCn1c(=O)c2ccccc2c2ccccc2c1=O	-8%
Cc1c2c([n+]3n1CCC3)CC(C)(C)CC2=O	1%
Cc1c(Br)c([N+](=O)[O-])nn1C(C)C(=O)N1CCc2ccccc2C1 (stereo unspecified)	3%
COc1ccc(CCNC(=O)c2ccc(Cn3c(=O)c4ccccc4n(Cc4ccccc4Cl)c3=O)cc2)cc1OC	3%
O=C(COc1cc(=O)n2c(n1)SCCC2)c1ccccc1	-18%
CCC(=O)N(Cc1cc(=O)[nH]c2ccccc12)c1ccc(OC)cc1	-15%
COc1ccc(-c2cn3cccnc3n2)cc1Br	-7%
COc1ccc(C(=O)NCC(=O)N/N=C/c2c(C)[nH]c3ccccc23)cc1OC	-12%
COc1ccc(CCN=Cc2c(C)[nH]n(-c3ccc([N+](=O)[O-])cc3)c2=O)cc1OC	-5%
Cc1ccc(CCS(=O)(=O)c2ccc(C(C)(C)C)cc2)cn1	3%
CCCOc1ccc(CNC(=O)C2CCN(c3nn4c(=O)cc(C)nc4s3)CC2)cc1	?
CCn1c(CNC(=O)c2ccccc2)nnc1SCC(=O)N1CCN(c2ccccc2)CC1	13%
O=C(Nc1ccccc1)N(Cc1ccc(F)cc1)c1ccccn1	5%
COC(=O)C1=C(N)Oc2cc(C)n(C)c(=O)c2C1c1ccc(Cl)cc1 (stereo unspecified)	5%
Cc1coc2c1c(C)cc1oc(=O)c(CC(=O)NCc3ccc(Cl)cc3)c(C)c12	-1%
Cc1ccc(C)n1-c1ccc(C(=O)NC2CCN(Cc3ccccc3)CC2)cc1	-16%
CC(OC(=O)c1ccc(Cl)c(S(N)(=O)=O)c1)C(=O)NCc1ccc2c(c1)OCO2 (stereo unspecified)	-9%
CC(C)(C)c1ccc(Oc2ccc(N)cn2)cc1	-15%
CC1=C(C(=O)Nc2cccc(C)n2)C(c2ccc3c(c2)OCO3)C2=C(CC(c3ccco3)CC2=O)N1 (stereo unspecified)	0%
O=C(c1ccc(Br)s1)N1CCc2ccccc2C1	-5%

Next section.
SMILES	VDR inhibitor
O=C(O)CCc1ccc(-c2ccccc2)n1-c1ccc(C(=O)O)cc1	?
CC1(C(=O)OCC(=O)Nc2ccc(S(=O)(=O)N3CCOCC3)cc2)CC1(Cl)Cl (stereo unspecified)	-9%
OCC1(CCOc2ccccc2)CCN(Cc2cn[nH]c2-c2ccc(F)cc2)CC1	-3%
COc1cccc(-c2cccc(NC(=O)C3CCN(C4CCC4)CC3)c2)c1	-11%
COc1ccc(C)cc1S(=O)(=O)NCC(c1ccc(N(C)C)cc1)N1CCc2ccccc21 (stereo unspecified)	-7%
Cc1ccccc1Nc1c(-c2c[nH]c3ccccc23)nc2cccc(C)n12	-10%
Cc1nc(CSc2ccc(Cl)cc2)cc(N2CC(C)OC(C)C2)n1 (stereo unspecified)	4%
CCC(Sc1nc2ncnc(N)c2[nH]1)C(=O)O (stereo unspecified)	-17%
O=C(NC1CCSc2ccccc21)c1ccc(F)c(S(=O)(=O)N2CCOCC2)c1 (stereo unspecified)	2%
Cc1cc(C)cc(NC(=O)c2cc(S(=O)(=O)N3CCCC3)cn2C)c1	-8%
CCC(c1nnnn1C1CCCCC1)N(Cc1ccco1)Cc1cc2ccc(OC)cc2[nH]c1=O (stereo unspecified)	-1%
CCOc1ccc(NC(=O)c2cc(S(=O)(=O)N3CCOCC3)ccc2F)cc1	-2%
CN(C(=O)C1CCCN(c2ncnc3c2nc2n3CCCCC2)C1)c1cccc(Cl)c1 (stereo unspecified)	13%
Cc1ccc(CNC(=O)C2CC(c3cc(C(F)(F)F)cc(C(F)(F)F)c3)=NO2)o1 (stereo unspecified)	-25%
COc1ccccc1NC(=S)NN1CCN(C)CC1	-5%
CCc1ccccc1NC(=O)CC(c1ccc(OC)cc1)n1cccc1 (stereo unspecified)	-16%
CCOCCOC(=O)C1=C(C)Nc2ccc(C)cc2S1	89µM*
CC1(C(=O)Nc2cccc(C(F)(F)F)c2)Cc2ccccc2C(=O)O1 (stereo unspecified)	18%
COC(=O)[C@]1(C)N[C@H](CN(C)S(=O)(=O)c2ccc(-c3ccccc3)cc2)[C@@H]2C(=O)N(C)C(=O)[C@@H]21	-10%
CCN(CC)S(=O)(=O)c1ccc(N2CCOCC2)c(NC(=O)Cc2ccc(Cl)cc2)c1	-10%
CCOC(=O)c1cc(-c2ccccc2)nc2nc(N(CC)CC)sc12	-2%
CS(=O)(=O)Nc1cccc(C2=NN(C(=O)c3ccco3)C(c3cccs3)C2)c1 (stereo unspecified)	-9%
CCOc1ccccc1NC(=O)c1ccc(OCC(=O)N2CCOCC2)c(OC)c1	-11%
O=C(CCn1c(=O)c2ccccc2n(CC(=O)NCCC2=CCCCC2)c1=O)NCc1ccco1	10%
CC(C)c1nc(-c2ccccc2)c(-c2ccccc2)[nH]1	-10%

Reformatted as a markdown table: part of the list above.
| Structure | VDR inhibitor |
| --- | --- |
| COc1ccc(NC(=O)CN2C(=O)NC(C)(c3ccc(C)cc3)C2=O)cn1 (stereo unspecified) | -17% |
| CC1CCC(N2CCNCC2)CC1 (stereo unspecified) | 2% |
| CSc1ccc2nnc(-c3cccc(F)c3)n2n1 | 4% |
| CC(C)(C)OC(=O)N1CCC(c2c(C(=O)NCC3CCN(C4CCCC4)C3)cnn2-c2cccc(Cl)c2)CC1 (stereo unspecified) | 12% |
| CCOc1ccccc1-n1nnc(-c2nc(-c3ccccc3C)no2)c1C | 9% |
| CCN(Cc1ccccc1)S(=O)(=O)c1c(C)[nH]c(C)c1C(=O)N1CCCCC1 | -15% |

7 entries out of the list above, ordered by the number in VDR inhibitor, descending.
SMILES	VDR inhibitor
CC1(C(=O)Nc2cccc(C(F)(F)F)c2)Cc2ccccc2C(=O)O1 (stereo unspecified)	18%
O=C(CCn1c(=O)c2ccccc2n(CC(=O)NCCC2=CCCCC2)c1=O)NCc1ccco1	10%
CCC(c1nnnn1C1CCCCC1)N(Cc1ccco1)Cc1cc2ccc(OC)cc2[nH]c1=O (stereo unspecified)	-1%
COc1ccc(C)cc1S(=O)(=O)NCC(c1ccc(N(C)C)cc1)N1CCc2ccccc21 (stereo unspecified)	-7%
CC(C)c1nc(-c2ccccc2)c(-c2ccccc2)[nH]1	-10%
CCc1ccccc1NC(=O)CC(c1ccc(OC)cc1)n1cccc1 (stereo unspecified)	-16%
CCC(Sc1nc2ncnc(N)c2[nH]1)C(=O)O (stereo unspecified)	-17%

(continued)
SMILES	VDR inhibitor
Cc1cc(C)cc(Nc2cc(=O)n(C3CCCCC3)c(=O)[nH]2)c1	1%
COC(=O)c1sccc1NS(=O)(=O)c1ccc(F)cc1F	-6%
CC(=O)N1CCN(C(=S)c2ccc(Cl)cc2)CC1	-3%
COc1cc(O)c(C(CC(=O)N2CCN(c3ccccc3)CC2)c2ccc(N(C)C)cc2)c(OC)c1 (stereo unspecified)	-16%&-13%
CCN(CC)c1ccc2cc(C(=O)NNC(=O)c3ccc(S(=O)(=O)N4CCCCC4)cc3)c(=O)oc2c1	-15%
Cn1c(N)c(C(=O)COC(=O)c2ccnc3ccccc23)c(=O)n(C)c1=O	-5%
O=C(CSc1nncs1)NC1CCCCCCC1	-17%
CCOC(=O)N1CCC(NC(=O)c2csc3c2CCCC3)CC1	10%
CCOc1ccc(NC(=O)C2C3C=CC4(O3)C2C(=O)N(Cc2cccnc2)C4C(=O)NC2CCCCC2)cc1 (stereo unspecified)	-13%
CN(CCC#N)C(=O)COC(=O)c1cccnc1Nc1ccccc1F	-11%
CN(C)/C=C/C(=O)c1ccc(Cl)cc1Cl	9%
O=C(NC(=S)Nc1ccccc1Cl)c1ccco1	10%
Cn1nnnc1SCC(=O)NC(=O)NCc1ccccc1	-3%
O=C(NCc1ccco1)c1noc2c1CCCCC2	-1%
CC(C)[C@H](NC(=O)N1CCn2c1nc1ccccc12)C(=O)NCc1ccc2c(c1)OCO2	8%
Cc1c(-c2cccc(NC(=O)c3ccco3)c2)nc2ncccn12	-5%
Cc1c(C(=O)NC(Cc2ccccc2)c2nc3ccccc3[nH]2)cccc1[N+](=O)[O-] (stereo unspecified)	6%
CCN(CC)S(=O)(=O)c1cccc(C(=O)Nc2nc3cc4c(cc3s2)OCCO4)c1	10%
CCOC(=O)C(Cc1c[nH]c2ccccc12)NC(=O)COc1ccc(Cl)c(C)c1 (stereo unspecified)	-2%

Some of the compounds tested; count on the stated rates, not on these rows.
